RGS16-Gao = RGS16-Galphao interaction regulator (human) | bead-based flow cytometry RGS16-Galphao binding, fluorescence; actives lie on both sides | binding response (% of control), % at 10 µM | 220,000 compounds, 0.38% hits | AID 1441;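 active means below 25% or above 175%, edge rows of some plates excepted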;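 further: Galphao activated by GDP with aluminum fluoride before binding; 100% = wells without compound and 0% = beads without RGS; some results beyond the cut were filed as inactive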
Target sequence (O15492 whole entry, looked up): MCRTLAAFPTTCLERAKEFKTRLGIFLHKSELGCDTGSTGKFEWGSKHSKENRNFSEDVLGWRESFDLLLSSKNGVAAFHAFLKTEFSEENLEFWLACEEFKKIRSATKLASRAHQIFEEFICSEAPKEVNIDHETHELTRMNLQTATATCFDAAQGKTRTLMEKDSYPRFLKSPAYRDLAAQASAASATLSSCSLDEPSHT
Target sequence (P09471 whole entry, looked up): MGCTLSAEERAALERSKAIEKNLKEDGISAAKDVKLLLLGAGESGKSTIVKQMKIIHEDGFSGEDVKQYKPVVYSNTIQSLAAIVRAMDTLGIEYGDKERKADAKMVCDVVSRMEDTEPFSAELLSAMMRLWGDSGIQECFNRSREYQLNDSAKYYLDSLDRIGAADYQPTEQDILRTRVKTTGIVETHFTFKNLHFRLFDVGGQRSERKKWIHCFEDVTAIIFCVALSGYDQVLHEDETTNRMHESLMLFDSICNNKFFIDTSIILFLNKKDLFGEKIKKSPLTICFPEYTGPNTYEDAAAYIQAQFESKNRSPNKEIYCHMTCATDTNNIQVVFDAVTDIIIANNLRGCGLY
GALR2 agonist = activates the human galanin receptor 2; O43603; 140,000 compounds, 0.48% hits; activation, %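 (tested at 5 µM)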; GALR2-expressing cells, agonist activation read-out;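 active means above mean plus 3 SD of all compounds, about 5% in these data, not always enough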;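 further: 0% = vehicle buffer wells and 100% = reference agonist at full effect; tested in CHO reporter cells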
Target sequence (O43603 whole entry, looked up): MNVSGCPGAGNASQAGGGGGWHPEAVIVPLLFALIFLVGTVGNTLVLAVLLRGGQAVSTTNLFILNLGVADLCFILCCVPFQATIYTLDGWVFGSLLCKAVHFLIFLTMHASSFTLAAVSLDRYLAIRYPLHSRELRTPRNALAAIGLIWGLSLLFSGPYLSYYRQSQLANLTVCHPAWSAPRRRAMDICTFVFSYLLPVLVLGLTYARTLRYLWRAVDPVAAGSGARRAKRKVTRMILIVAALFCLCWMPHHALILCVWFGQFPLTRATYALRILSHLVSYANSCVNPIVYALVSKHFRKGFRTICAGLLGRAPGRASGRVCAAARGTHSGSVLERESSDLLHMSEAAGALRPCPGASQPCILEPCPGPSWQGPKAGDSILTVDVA
Insulin prom inh = TRM-6 insulin promoter activity inhibition. TRM-6 cells (human fetal islet line), insulin promoter-eGFP reporter, imaging; reporter expression induced with tamoxifen. inhibition, % at 2 µM. 130,000 compounds, 0.9% hits;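 active means inhibition above the mean plus 3 SD, with well images judged a real hit on visual review, cut at about 60% in these data, passing the limit was not always enough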
PKD1 inh = blocks activity of human protein kinase D1. Q15139. PKD1 kinase fluorescence polarization assay. inhibition, %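 (about 10 µM by stock and volumes)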. 200,000 compounds, 0.056% hits;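 active means inhibition of 50% or more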;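 further: controls were vehicle for no effect and a reference inhibitor for full effect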
HSV augment = increases HSV replication in cells; 220,000 compounds, 0.005% hits; maximum fold increase; AID 1956; HSV replication augmentation in cells, fold increase;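 active means peak rise of 1.5-fold or more in the series; tested in PC3 cells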;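 further: first round at 10 µM; read as green reporter fluorescence; hits show the peak of a series up to 25 µM; 1 = signal of infected wells without compound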
Insulin prom inh cell count = also measured in Insulin prom inh; calls as there; normalized cell count, %; measured here: cell count, toxicity; reference of the scale not given here;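 cells exposed to compound for 48 h; stained nuclei by imaging scaled within each plate; lower means fewer cells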
HSV augment primary fold = further read-out of HSV augment, marked with its call; fold increase; compound at 10 µM; measured here: primary screen fold increase 10 uM; tested in PC3 cells;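 GFP signal in the first replicate; 1 = infected wells without compound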
An asterisk follows results filed as active; [ ] = remark or other dose. No enrichment for hits, and some 1.2% of all compounds hit somewhere here.

COc1ccc(OC)c(C(=O)CSc2nnc(-c3cccs3)o2)c1 was read as RGS16-Gao 95, GALR2 agonist -0.1, Insulin prom inh -29, PKD1 inh 7, HSV augment inactive, Insulin prom inh cell count 65 and HSV augment primary fold 0.87.
Screening Cc1ccc(S(=O)(=O)N2CCOCC2)cc1C(=O)NCc1ccco1 returned RGS16-Gao 98, GALR2 agonist -1.4, PKD1 inh -4, HSV augment inactive and HSV augment primary fold 0.99.
For O=C1c2c(O)cc(O)cc2O[C@@]12c1c(cc(O)c3c1O[C@H](c1ccc(O)cc1)[C@@H](O)C3)O[C@@H]2c1ccc(O)cc1 the results were RGS16-Gao 103, GALR2 agonist -0.6, Insulin prom inh 10, PKD1 inh -4, HSV augment inactive, Insulin prom inh cell count 130 and HSV augment primary fold 0.78.
`CCOC(=O)CC1C(=O)NCCN1Cc1cccc(OC)c1` (stereo not drawn) gave RGS16-Gao 114, GALR2 agonist -3.5, PKD1 inh 16, HSV augment inactive and HSV augment primary fold 0.93.
`O=C(Nc1ccc2c(c1)CCC2)c1cc(=O)[nH]c2ccccc12` gave RGS16-Gao 103, HSV augment inactive and HSV augment primary fold 1.
Screening COc1ccc(NC(C)=O)cc1NC(=O)CN1CCN(C2c3ccccc3-c3ccccc32)CC1 returned RGS16-Gao 100, GALR2 agonist -2.5, Insulin prom inh 14, PKD1 inh 2, HSV augment inactive, Insulin prom inh cell count 55 and HSV augment primary fold 0.73.
Screening CCCOc1ccc(-c2c(C(=O)N/N=C/c3ccc(OCC)cc3)nnn2-c2nonc2N)cc1 returned RGS16-Gao 104, GALR2 agonist -1.9, Insulin prom inh 35, PKD1 inh -8, HSV augment inactive, Insulin prom inh cell count 95 and HSV augment primary fold 0.93.
`COc1ccc(C(=O)Nc2cc(C(=O)NCCc3ccccc3)ccc2Cl)cc1` gave RGS16-Gao 95, GALR2 agonist -2.1, Insulin prom inh -1, PKD1 inh -7, HSV augment inactive, Insulin prom inh cell count 159 and HSV augment primary fold 0.84.
For O=C(Nc1ccccc1)C1CCCN(S(=O)(=O)c2ccc(-n3cnnn3)cc2)C1 (stereo not drawn) the results were RGS16-Gao 106, GALR2 agonist -1.9, Insulin prom inh -33, PKD1 inh 0, HSV augment inactive, Insulin prom inh cell count 59 and HSV augment primary fold 0.99.
O=C(CSc1c2c(nc3ccc(Cl)cc13)CCCC2)NCc1ccco1 was read as RGS16-Gao 94, GALR2 agonist -0.2, Insulin prom inh 8, PKD1 inh -4, HSV augment inactive, Insulin prom inh cell count 150 and HSV augment primary fold 0.94.
Cc1ccc(-n2c(O)c(/C=N/NC(=O)C3COc4ccccc4O3)c3ccccc3c2=O)cc1 (stereo not drawn) was read as RGS16-Gao 106, GALR2 agonist 1.0, Insulin prom inh 35, PKD1 inh 2, HSV augment inactive, Insulin prom inh cell count 134 and HSV augment primary fold 0.95.
Screening NS(=O)(=O)c1ccc(CCNC(=O)CCCOc2ccccc2)cc1 returned RGS16-Gao 105, Insulin prom inh 40, PKD1 inh -6, HSV augment inactive, Insulin prom inh cell count 105 and HSV augment primary fold 0.95.
Screening CCN(CC(=O)Nc1ccccc1C(=O)OC)S(=O)(=O)c1ccccc1 returned RGS16-Gao 102, GALR2 agonist -0.8, Insulin prom inh 31, PKD1 inh -4, HSV augment inactive, Insulin prom inh cell count 88 and HSV augment primary fold 1.1.
CC(C(=O)N1CCOCC1)N1C(=O)C2C3CC(C(Br)C3Br)C2C1=O (stereo not drawn) was read as RGS16-Gao 105, GALR2 agonist -0.1, Insulin prom inh 6, PKD1 inh 1, HSV augment inactive, Insulin prom inh cell count 108 and HSV augment primary fold 1.
`c1cc(CN2CCN(C3CCCCCC3)CC2)ccn1` gave RGS16-Gao 99, Insulin prom inh 45, PKD1 inh -3, HSV augment inactive, Insulin prom inh cell count 46 and HSV augment primary fold 0.98.
CCOC(=O)Cc1n[nH]c(=O)c2ccccc12 was read as RGS16-Gao 103, PKD1 inh -5, HSV augment inactive and HSV augment primary fold 1.
`CC1=C(C(=O)N(C)Cc2ccccc2)C2(CCC(C)CC2)OC1=O` (stereo not drawn) gave RGS16-Gao 101, GALR2 agonist -1.0, PKD1 inh -10, HSV augment inactive and HSV augment primary fold 1.1.
Cc1ccc(-n2ncc3c2ncn2c(C)nnc32)cc1C was read as RGS16-Gao 104, GALR2 agonist -1.3, Insulin prom inh -15, PKD1 inh 1, HSV augment inactive, Insulin prom inh cell count 85 and HSV augment primary fold 0.85.
For Cc1ccc(N2Cc3ccccc3C2=S)cc1 the results were RGS16-Gao 106, PKD1 inh 11, HSV augment inactive and HSV augment primary fold 0.72.
`O=C(c1ccccc1)N1CCN(C(=S)NCc2ccc3c(c2)OCO3)CC1` gave RGS16-Gao 107, GALR2 agonist -2.1, PKD1 inh -3, HSV augment inactive and HSV augment primary fold 0.95.
Screening CC(=O)Nc1ccc(S(=O)(=O)N2CCN(C(=O)Cc3ccccc3)CC2)cc1 returned RGS16-Gao 90, GALR2 agonist -3.8, Insulin prom inh 7, PKD1 inh -2, HSV augment inactive, Insulin prom inh cell count 85 and HSV augment primary fold 0.88.
CSc1nc(-c2ccccc2)nc(NC(=O)c2ccccc2)c1C(C)=O was read as RGS16-Gao 104, Insulin prom inh -7, PKD1 inh 2, HSV augment inactive, Insulin prom inh cell count 132 and HSV augment primary fold 0.95.
`COc1ccc(-c2nc(-c3cccs3)c(-c3cccs3)[nH]2)cc1OC` gave RGS16-Gao 104, GALR2 agonist -0.4, Insulin prom inh 55, PKD1 inh -2, HSV augment inactive, Insulin prom inh cell count 110 and HSV augment primary fold 1.1.
O=C(NC1CCCc2ccccc21)c1ccc(=O)[nH]c1 (stereo not drawn) was read as RGS16-Gao 109, GALR2 agonist -0.3, Insulin prom inh -29, PKD1 inh -11, HSV augment inactive, Insulin prom inh cell count 90 and HSV augment primary fold 0.98.
O=S(=O)(NCc1cccnc1)c1ccc(Cl)c(Cl)c1Cl was read as RGS16-Gao 107, GALR2 agonist -0.4, Insulin prom inh -23, PKD1 inh -6, HSV augment inactive, Insulin prom inh cell count 74 and HSV augment primary fold 1.
For C=C(c1ccc(OC)cc1)c1ccc(OC)cc1 the results were RGS16-Gao 99, GALR2 agonist -0.4, Insulin prom inh 19, PKD1 inh 8 and Insulin prom inh cell count 113.
For CCC(=O)NCCc1cc2ccc(C)cc2[nH]c1=O the results were RGS16-Gao 107, GALR2 agonist -2.0, Insulin prom inh 20, PKD1 inh -10, HSV augment inactive, Insulin prom inh cell count 178 and HSV augment primary fold 0.96.
Cc1ccc(S(=O)(=O)Cc2ccc(C(=O)NCc3ccc4c(c3)OCO4)o2)cc1 was read as RGS16-Gao 94, GALR2 agonist -1.3, Insulin prom inh 16, PKD1 inh -6, HSV augment inactive, Insulin prom inh cell count 80 and HSV augment primary fold 0.99.
For O=C(O)COCC(=O)NCc1csc2ccccc12 the results were RGS16-Gao 87, HSV augment inactive and HSV augment primary fold 1.
Cc1cc2ncn(S(=O)(=O)c3ccc(S(=O)(=O)N4CCOCC4)cc3)c2cc1C was read as RGS16-Gao 116, GALR2 agonist 0.8, Insulin prom inh -21, PKD1 inh 2, HSV augment inactive, Insulin prom inh cell count 81 and HSV augment primary fold 0.91.
Screening CC1CCCC(NC(=O)CCCn2c(=O)[nH]c3cc(Cl)ccc3c2=O)C1C (stereo not drawn) returned RGS16-Gao 204*[activator], GALR2 agonist -3.7, Insulin prom inh 23, PKD1 inh -7, HSV augment inactive, Insulin prom inh cell count 142 and HSV augment primary fold 0.94.
Cc1ccc(N(CN2CCCC2=O)C(=O)c2ccccc2)cc1 was read as RGS16-Gao 102, PKD1 inh -1, HSV augment inactive and HSV augment primary fold 0.88.
For O=C(Nc1ccc2c(c1)OCO2)OCc1ccccc1 the results were RGS16-Gao 101, GALR2 agonist 12*, Insulin prom inh 100*, PKD1 inh -2, HSV augment inactive, Insulin prom inh cell count 0.5* and HSV augment primary fold 1.1.
Screening Nc1ccc(-c2nc3cc(N)ccc3n2CCO)cc1 returned RGS16-Gao 98, HSV augment inactive and HSV augment primary fold 1.
For O=C(CNC(=O)c1ccc2c(c1)OCCO2)N/N=C/c1ccc(O)cc1O the results were RGS16-Gao 93, GALR2 agonist -1.9, PKD1 inh -3, HSV augment inactive and HSV augment primary fold 1.
Screening O=C(c1ccccc1CCc1ccccc1)N1CCN(c2ccccn2)CC1 returned RGS16-Gao 99, GALR2 agonist -0.7, Insulin prom inh -386, PKD1 inh -2, HSV augment inactive, Insulin prom inh cell count 50 and HSV augment primary fold 0.94.
For Cc1ccc2[nH]c3c(=O)n4c(nc3c2c1)SCC4 the results were RGS16-Gao 103, PKD1 inh -4, HSV augment inactive and HSV augment primary fold 0.86.
`Cn1c(=O)oc2cc(S(=O)(=O)N3CCC(C(=O)NCCc4ccccc4)CC3)ccc21` gave RGS16-Gao 106, HSV augment inactive and HSV augment primary fold 1.
Screening COc1ccc(NC(=O)C2(c3ccc(NC(=O)c4ccc(OC(C)=O)cc4)cc3)CCCC2)cc1 returned RGS16-Gao 93, GALR2 agonist -1.4, Insulin prom inh -93, PKD1 inh -1, HSV augment inactive, Insulin prom inh cell count 74 and HSV augment primary fold 0.93.
For COc1ccc(CNC(=O)CCC(=O)Nc2nnc(C(C)C)s2)cc1 the results were RGS16-Gao 105, HSV augment inactive and HSV augment primary fold 0.95.
CCNC(=S)N/N=C/c1ccc(F)cc1 was read as RGS16-Gao 103, PKD1 inh -6, HSV augment inactive and HSV augment primary fold 0.99.
Screening CSc1ccc(C(=S)N2CCN(Cc3ccccc3)CC2)cc1 returned RGS16-Gao 92, GALR2 agonist -0.5, Insulin prom inh 71, PKD1 inh -11, HSV augment inactive, Insulin prom inh cell count 68 and HSV augment primary fold 0.53.
`C=C(C)COc1ccc(-c2[nH]ncc2Oc2ccccc2OCC)c(O)c1` gave RGS16-Gao 94, GALR2 agonist -2.5, Insulin prom inh -85, PKD1 inh -1, HSV augment inactive, Insulin prom inh cell count 26 and HSV augment primary fold 0.87.
COCCCn1c(CCC(=O)O)ccc1-c1cccs1 was read as RGS16-Gao 95, GALR2 agonist -1.0, Insulin prom inh -86, PKD1 inh -10, HSV augment inactive, Insulin prom inh cell count 107 and HSV augment primary fold 0.94.
Screening CCOc1cc(C(=O)NCc2ccncc2)cc(OCC)c1OCC returned RGS16-Gao 102, GALR2 agonist -1.3, Insulin prom inh 35, PKD1 inh -9, HSV augment inactive, Insulin prom inh cell count 48 and HSV augment primary fold 1.
Screening C#CCSc1nnc(-c2cc3c(C(F)(F)F)nn(C)c3s2)n1C returned RGS16-Gao 103, GALR2 agonist -2.4, Insulin prom inh 13, PKD1 inh -16, HSV augment inactive, Insulin prom inh cell count 135 and HSV augment primary fold 1.
For NC(=O)c1ccc(NCCCN2CCOCC2)c([N+](=O)[O-])c1 the results were RGS16-Gao 101, PKD1 inh 10, HSV augment inactive and HSV augment primary fold 1.1.
For O=C(CCCCCn1c(=O)[nH]c2ccccc2c1=O)N1CCN(Cc2ccc3c(c2)OCO3)CC1 the results were RGS16-Gao 104, GALR2 agonist -0.1, PKD1 inh -1, HSV augment inactive and HSV augment primary fold 1.

Of the compounds above, these have a halogen:
`COc1ccc(C(=O)Nc2cc(C(=O)NCCc3ccccc3)ccc2Cl)cc1` gave RGS16-Gao 95, GALR2 agonist -2.1, Insulin prom inh -1, PKD1 inh -7, HSV augment inactive, Insulin prom inh cell count 159 and HSV augment primary fold 0.84.
O=C(CSc1c2c(nc3ccc(Cl)cc13)CCCC2)NCc1ccco1 was read as RGS16-Gao 94, GALR2 agonist -0.2, Insulin prom inh 8, PKD1 inh -4, HSV augment inactive, Insulin prom inh cell count 150 and HSV augment primary fold 0.94.
CC(C(=O)N1CCOCC1)N1C(=O)C2C3CC(C(Br)C3Br)C2C1=O (stereo not drawn) was read as RGS16-Gao 105, GALR2 agonist -0.1, Insulin prom inh 6, PKD1 inh 1, HSV augment inactive, Insulin prom inh cell count 108 and HSV augment primary fold 1.
O=S(=O)(NCc1cccnc1)c1ccc(Cl)c(Cl)c1Cl was read as RGS16-Gao 107, GALR2 agonist -0.4, Insulin prom inh -23, PKD1 inh -6, HSV augment inactive, Insulin prom inh cell count 74 and HSV augment primary fold 1.
Screening CC1CCCC(NC(=O)CCCn2c(=O)[nH]c3cc(Cl)ccc3c2=O)C1C (stereo not drawn) returned RGS16-Gao 204*[activator], GALR2 agonist -3.7, Insulin prom inh 23, PKD1 inh -7, HSV augment inactive, Insulin prom inh cell count 142 and HSV augment primary fold 0.94.
CCNC(=S)N/N=C/c1ccc(F)cc1 was read as RGS16-Gao 103, PKD1 inh -6, HSV augment inactive and HSV augment primary fold 0.99.
Screening C#CCSc1nnc(-c2cc3c(C(F)(F)F)nn(C)c3s2)n1C returned RGS16-Gao 103, GALR2 agonist -2.4, Insulin prom inh 13, PKD1 inh -16, HSV augment inactive, Insulin prom inh cell count 135 and HSV augment primary fold 1.

Screening data from PubChem.
